INS promoter inh: inhibitors of insulin promoter-driven GFP, primary screen, imaging, TRM-6 cells (human fetal islet line), eGFP reporter, cell count | AID 1273, 2008 | hit rate 0.9% among 130,000 | inhibition, % at 2 µM | reporter expression induced with tamoxifen;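 active = inhibition above the mean plus 3 SD, with well images judged a real hit on visual review, cut at about 60% in these data, passing the limit was not always enough; inconclusive = inhibition over the cutoff but images rejected on review; inactive = inhibition not above the cutoff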
RGS16-Gao: modulators of RGS16 binding to Galphao, primary screen, biochemical, human proteins, multiplexed bead flow cytometry; hit rate 0.38% among 220,000; Regulator of G-protein signaling 16 (Homo sapiens) + Guanine nucleotide-binding protein …; AID 1441, 2008; bead-based flow cytometry RGS16-Galphao binding, fluorescence; actives lie on both sides; binding response (% of control), % at 10 µM;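 active = below 25% or above 175%, edge rows of some plates excepted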;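 also: Galphao activated by GDP with aluminum fluoride before binding; 100% = wells without compound and 0% = beads without RGS; some results beyond the cut were filed as inactive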
Target sequence (O15492 whole entry, looked up): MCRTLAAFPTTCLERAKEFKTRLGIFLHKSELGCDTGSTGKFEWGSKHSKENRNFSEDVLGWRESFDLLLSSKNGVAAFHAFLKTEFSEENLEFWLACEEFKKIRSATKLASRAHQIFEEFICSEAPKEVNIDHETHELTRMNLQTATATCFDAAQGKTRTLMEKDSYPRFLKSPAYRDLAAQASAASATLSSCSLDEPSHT
Target sequence (P09471 whole entry, looked up): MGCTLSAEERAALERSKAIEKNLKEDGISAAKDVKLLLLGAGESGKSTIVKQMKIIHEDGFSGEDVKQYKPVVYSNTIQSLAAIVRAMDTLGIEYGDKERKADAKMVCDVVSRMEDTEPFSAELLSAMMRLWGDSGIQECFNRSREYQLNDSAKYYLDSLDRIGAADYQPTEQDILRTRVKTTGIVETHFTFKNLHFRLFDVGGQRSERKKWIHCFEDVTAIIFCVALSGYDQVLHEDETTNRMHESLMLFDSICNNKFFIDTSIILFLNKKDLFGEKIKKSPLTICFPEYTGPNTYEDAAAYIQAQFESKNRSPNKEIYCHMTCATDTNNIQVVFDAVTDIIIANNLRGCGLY
PKD1 inh: inhibitors of human PKD1 kinase, biochemical, fluorescence polarization; Serine/threonine-protein kinase D1 (Homo sapiens), Q15139; AID 797, 2007; hit rate 0.056% among 200,000; PKD1 kinase fluorescence polarization assay; inhibition, %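 (about 10 µM by stock and volumes)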;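 active = inhibition of 50% or more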;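 also: controls were vehicle for no effect and a reference inhibitor for full effect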
HSV replic up: enhancers of HSV replication in host cells, fold increase, host cell viability; HSV replication augmentation in cells; maximum fold increase; hit rate 0.005% among 220,000; AID 1956, 2009;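 active = peak rise of 1.5-fold or more in the series; inconclusive = self-fluorescent or not available for retest; tested in PC3 cells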;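 also: first round at 10 µM; read as green reporter fluorescence; hits show the peak of a series up to 25 µM; 1 = signal of infected wells without compound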
GALR2 ag: GALR2 receptor agonists, primary screen, cell-based; AID 803, 2007; Galanin receptor type 2 (Homo sapiens), O43603; activation, %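 (tested at 5 µM)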; hit rate 0.48% among 140,000; GALR2-expressing cells, agonist activation read-out;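 active = above mean plus 3 SD of all compounds, about 5% in these data, not always enough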;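 also: 0% = vehicle buffer wells and 100% = reference agonist at full effect; tested in CHO reporter cells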
Target sequence (O43603 whole entry, looked up): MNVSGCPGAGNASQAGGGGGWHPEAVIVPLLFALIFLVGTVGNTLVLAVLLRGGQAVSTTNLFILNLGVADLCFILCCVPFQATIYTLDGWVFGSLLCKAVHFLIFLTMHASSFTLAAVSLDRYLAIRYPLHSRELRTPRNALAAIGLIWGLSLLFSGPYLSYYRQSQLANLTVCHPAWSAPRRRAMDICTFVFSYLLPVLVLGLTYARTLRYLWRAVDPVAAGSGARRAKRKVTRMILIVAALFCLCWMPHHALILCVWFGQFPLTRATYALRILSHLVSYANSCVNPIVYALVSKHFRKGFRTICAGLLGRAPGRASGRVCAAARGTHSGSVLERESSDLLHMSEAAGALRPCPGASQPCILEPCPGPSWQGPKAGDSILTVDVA
INS promoter inh cell count: second read-out of INS promoter inh, no call of its own (marks repeat the call); normalized cell count, %; measured here: cell count, toxicity; reference of the scale not given here;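 cells exposed to compound for 48 h; stained nuclei by imaging scaled within each plate; lower means fewer cells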
HSV replic up primary fold: second read-out of HSV replic up, no call of its own (marks repeat the call); fold increase; compound at 10 µM; measured here: primary screen fold increase 10 uM; tested in PC3 cells;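 GFP signal in the first replicate; 1 = infected wells without compound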
Numbers without * were called inactive; i = inactive; ? = inconclusive; . = not tested or not shown.

SMILES	INS promoter inh	INS promoter inh cell count	RGS16-Gao	PKD1 inh	HSV replic up	HSV replic up primary fold	GALR2 ag
COC(=O)CSC1=C(C#N)C(c2ccsc2)CC(=O)N1 (centres undefined)	62	116	103	-3	i	0.73	-2.0
O=C(CCN1C(=O)COc2ccccc21)NCCC1=CCCCC1	.	.	106	-6	i	0.93	-1.9
CC(NC(=O)Cc1cccs1)c1ccc2c(c1)OCO2 (centres undefined)	.	.	88	-5	i	1.1	-4.3
COc1ccccc1/C=N/NC(=O)CC(=O)Nc1ccc(Cl)c(Cl)c1	.	.	99	-1	i	1	-1.8
O=C(OCC(=O)c1cccs1)c1cccc(C(=O)OCC(=O)c2cccs2)n1	.	.	88	0	i	0.88	-0.1
CCCCNC(=O)O/N=C(\N)CS(=O)(=O)C(C)(C)C	.	.	90	.	i	1.1	.
Cc1cc(NC(=O)CSc2nc(N)c(NC(=O)c3ccccc3)c(=O)[nH]2)no1	.	.	104	3	i	0.93	.
O=C(/C=C/c1ccc(Cl)cc1)NC(=S)NN1CCCCC1c1cccnc1 (centres undefined)	-47	93	96	6	i	0.99	-0.8
O=C(c1ccc2c(=O)n3c(nc2c1)CCCCC3)N1CCN(c2ccccc2)CC1	.	.	97	.	i	0.98	.
CCC(C)(C)NC(=O)Cc1ccc(F)cc1	.	.	102	2	i	0.83	.
CCOC(=O)c1cc(OC(=O)c2ccccc2)n(-c2ccccc2)n1	17	82	87	2	i	0.96	-0.7
O=C(CSc1nc(-c2ccccc2)c(-c2ccccc2)o1)Nc1nnc(-c2ccccc2)s1	15	76	15	-1	.	.	-2.2
O=C(Nc1ccc(N2CCN(C(=O)c3ccco3)CC2)cc1)c1ccc(F)cc1	25	146	105	-3	i	0.7	-0.5
Cn1c(N2CCN(S(=O)(=O)c3ccc(F)cc3)CC2)nc2ccccc21	.	.	107	-1	i	0.98	.
CCOC(=O)c1sc(N2C(=O)C(O)=C(C(=O)c3ccco3)C2c2ccccc2)nc1C (centres undefined)	.	.	.	-14	.	.	-1.3
Cn1cccc1-c1cc(C(=O)N/N=C/c2cccc(O)c2)[nH]n1	13	97	97	-5	i	0.86	.
O=c1[nH][nH]c(C(F)(F)F)c1C=NCc1cccc(Cl)c1	22	78	98	-6	i	1	-0.9
Cc1nc2c(ncn2-c2ccccc2)c(=O)n1NC(=O)CN1CCCC1	.	.	105	.	i	1.1	.
FC(F)(F)c1cc(-c2ccccc2)nc(N2CCCCCC2)n1	12	102	100	-2	i	1	-0.5
COC(=O)c1ccccc1NC(=S)NC(=O)COc1ccc(C)cc1	33	91	.	-6	i	0.91	-1.6
Cc1nn(CCCC(=O)Nc2ccccn2)c(C)c1[N+](=O)[O-]	-18	120	117	1	i	1	.
CCC(=O)N(Cc1cc2ccccc2[nH]c1=O)c1ccc(OC)cc1	-6	63	101	5	i	0.9	.
Cc1c(N=Nc2ccc(N(C)C)cc2)c(=O)n(-c2ccccc2)n1C	.	.	-1	4	i	0.99	.
O=C(NCC(O)COc1ccc([N+](=O)[O-])cc1)Nc1ccccc1 (centres undefined)	.	.	100	.	i	1	.
COC(=O)CSC1=C(C#N)C(c2ccccc2F)CC(=O)N1 (centres undefined)	.	.	98	.	i	0.93	.
O=C(CCn1c(=O)sc2ccccc21)Nc1nccs1	0	130	97	-7	i	0.82	-0.2
COCCn1nnnc1C(CC(C)C)N1CCN(C(=O)c2ccco2)CC1 (centres undefined)	.	.	103	-11	i	0.82	-1.4
CC1(C)C2CC=C(/C=N/NC(=S)Nc3cccnc3)C1C2 (centres undefined)	.	.	125	-1	i	0.9	.
COc1ccc(CCN2C(=O)CN(Cc3ccccc3)CC2=O)cc1OC	-11	66	100	-13	i	0.91	-4.2
CC(C)C[C@@H](CSc1ccc(Br)cc1)N1CCN(C)CCC1=O	.	.	99	.	i	0.83	.
Cc1ccccc1C(=O)N1CCN(c2ncnc3c2cnn3-c2ccccc2)CC1	26	225	98	-4	i	0.86	0.0
Cc1ccc(-c2nn(C)c(=O)c3ccccc23)cc1CNS(C)(=O)=O	17	105	120	-4	i	0.93	-3.6
Cc1ccccc1P(=O)(CO)c1ccccc1C	.	.	108	-6	i	0.9	-2.1
CC(C)Oc1ccc(C(=O)CCN2CCCCC2)cc1	53	114	102	6	i	0.82	-1.4
CC(=O)Nc1c([N+](=O)[O-])cc2[nH]c(=O)[nH]c2c1[N+](=O)[O-]	-131	70	98	2	i	1	.
Cc1ccc(N2CC(C(=O)Nc3ccncc3)CC2=O)cc1 (centres undefined)	-19	234	114	-9	i	1	-1.3
Cc1cc(=O)oc2c1c(C)nn2-c1cccc(Cl)c1	-16	108	102	-3	i	0.94	.
CCOC(=O)N1CCC(NC(=O)C(NS(=O)(=O)c2cccc3nsnc23)c2ccccc2)CC1 (centres undefined)	.	.	106	-5	i	1	.
O=C(NCCCO)c1ccc2[nH]c3c(c2c1)CCCC3	22	88	35	-4	i	0.99	-1.2
C[C@H](NS(=O)(=O)c1ccc(Cl)c(Cl)c1)C(=O)OCc1cc(=O)n2cc(Br)ccc2n1	-27	116	97	0	i	1	0.6

Grouped by structure: the entries above with fluorine.
SMILES	INS promoter inh	INS promoter inh cell count	RGS16-Gao	PKD1 inh	HSV replic up	HSV replic up primary fold	GALR2 ag
CCC(C)(C)NC(=O)Cc1ccc(F)cc1	.	.	102	2	i	0.83	.
O=C(Nc1ccc(N2CCN(C(=O)c3ccco3)CC2)cc1)c1ccc(F)cc1	25	146	105	-3	i	0.7	-0.5
Cn1c(N2CCN(S(=O)(=O)c3ccc(F)cc3)CC2)nc2ccccc21	.	.	107	-1	i	0.98	.
O=c1[nH][nH]c(C(F)(F)F)c1C=NCc1cccc(Cl)c1	22	78	98	-6	i	1	-0.9
FC(F)(F)c1cc(-c2ccccc2)nc(N2CCCCCC2)n1	12	102	100	-2	i	1	-0.5
COC(=O)CSC1=C(C#N)C(c2ccccc2F)CC(=O)N1 (centres undefined)	.	.	98	.	i	0.93	.

Additional entries:
SMILES	INS promoter inh	INS promoter inh cell count	RGS16-Gao	PKD1 inh	HSV replic up	HSV replic up primary fold	GALR2 ag
CC(Sc1ccsc1[N+](=O)[O-])C(=O)NCc1ccccc1 (centres undefined)	40	58	134	-6	i	0.87	.
Cc1ccc(/C=C2/SC(=S)N(CCC(=O)N3CCN(c4ccccc4)CC3)C2=O)cc1	7	110	103	0	.	.	-2.2
CN(Cc1nc2ccccc2c(=O)[nH]1)c1ccccc1	32	132	98	0	i	0.94	-1.9
Cc1ccc(-c2cc(C(=O)Nc3ccc(S(=O)(=O)Nc4onc(C)c4C)cc3)c3ccccc3n2)cc1	.	.	102	1	i	0.96	.
Cc1nc2ccc(S(=O)(=O)NC(C(=O)NC3CCCC3)C(C)C)cc2s1 (centres undefined)	.	.	103	-8	i	1	-2.2
CC(C)c1cc(NC(=O)CSc2nnc(-c3ccccc3F)n2C)on1	6	95	110	-13	i	0.95	-0.2
COCCNC(=S)N(CCc1c(C)[nH]c2ccc(C)cc12)Cc1cc(OC)c(OC)c(OC)c1	-14	81	.	-3	.	.	-1.0
Cc1cccc(Cc2nnc(CCC(=O)N3CCCC(CN4CCOCC4)C3)o2)c1 (centres undefined)	-7	123	110	-5	i	1	.
Cc1cc(C)n(Cc2ccc(C(=O)Nc3cccc(Br)c3)o2)n1	8	169	105	8	i	0.92	-2.0
COC(=O)c1c(NC(=O)c2cccs2)sc2c1CCCC2	57	91	97	1	i	1	-2.0
O=C(Nc1cccc(-c2csc(Nc3cccc(C(F)(F)F)c3)n2)c1)c1ccccc1	.	.	106	.	i	0.75	.
O=C(C1CCN(S(=O)(=O)c2cccs2)CC1)N1CCN(c2ccccc2)CC1	25	70	103	-4	i	0.78	-1.3
CCCN(CCC)S(=O)(=O)c1ccc(NS(=O)(=O)c2ccc(F)cc2)cc1	21	82	101	-4	i	1.1	-2.5
CC(=O)c1cccc(Nc2nc(-c3cccc([N+](=O)[O-])c3)cs2)c1	-25	83	87	-8	i	0.65	-0.8
CC(Oc1ccc(Cl)cc1)C(=O)NNC(=S)NC(=O)c1ccco1 (centres undefined)	46	58	73	-8	i	0.99	-1.4
CC(C)(C)c1nc(NCC2CCCO2)c2nnn(Cc3ccccc3)c2n1 (centres undefined)	9	117	97	-12	i	1.1	-1.3
CC(C)Oc1ccc(CCc2nnc(SCC(=O)O)n2-c2ccccc2)cc1	.	.	100	3	i	0.96	.
O=C(Nc1nncs1)c1c(F)c(F)c(F)c(F)c1F	28	83	102	-3	i	0.85	0.6
O=C(C1=C(O)C(=O)N(CCN2CCOCC2)C1c1ccccn1)c1cccs1 (centres undefined)	49	43	110	-4	i	1.1	1.2
C/C(=N\NC(=O)c1cccc(C)c1)c1ccc(N2CCOCC2)cc1	-17	100	111	1	.	.	-1.9
CC(C)[C@H](NC(=O)c1ccco1)C(=O)OCC(=O)N(C)c1ccccc1	.	.	96	.	i	0.97	.
COc1ccc(C(=O)N2CCCC(c3nc(-c4cccs4)no3)C2)cc1 (centres undefined)	64	91	99	10	i	0.92	-1.9
O=S(=O)(c1ccc(F)cc1)N1CCC2(CC1)OCCO2	.	.	103	0	i	0.62	.
COc1ccc(C(=O)NC(=S)NCC2CCCO2)cc1 (centres undefined)	-15	106	99	-2	.	.	-1.2
c1ccc(CSc2nc3ccccc3[nH]2)cc1	.	.	96	.	i	0.95	.
CCOC(=O)C(C)Sc1ncc(OC)c(Sc2ccc(Cl)cc2)n1 (centres undefined)	.	.	113	-5	i	0.89	-0.5
O=C(Nc1ccc(F)cc1)C(Cc1ccccc1)n1cccc1 (centres undefined)	.	.	84	.	?	.	.
COc1ccccc1NC=C1C(=O)OC(C)(C)OC1=O	.	.	102	-2	i	0.96	-2.0
Cn1ccnc1Sc1cc(Cl)ccc1[N+](=O)[O-]	.	.	106	-1	i	1.1	.
c1ccc(CNC2=NCCCC2)cc1	.	.	100	2	i	1.2	-1.3

Copied from the list.
Value for CCOC(=O)C(C)Sc1ncc(OC)c(Sc2ccc(Cl)cc2)n1 (centres undefined) in GALR2 ag: -0.5
Value for Cn1ccnc1Sc1cc(Cl)ccc1[N+](=O)[O-] in PKD1 inh: -1
Value for c1ccc(CSc2nc3ccccc3[nH]2)cc1 in RGS16-Gao: 96
Value for COc1ccccc1NC=C1C(=O)OC(C)(C)OC1=O in RGS16-Gao: 102

(listing goes on)
SMILES	INS promoter inh	INS promoter inh cell count	RGS16-Gao	PKD1 inh	HSV replic up	HSV replic up primary fold	GALR2 ag
C=CCc1cccc2cc(C(=O)N3CCN(C(=O)OCC)CC3)c(=O)oc12	-29	88	76	-16	i	0.99	-0.6
CCCCC1CC(C)(C(=O)CSc2nc3ccccc3s2)OC1=O (centres undefined)	21	142	103	2	i	1	-0.3
CC1=C(C(=O)NCc2ccc3c(c2)OCO3)C2(CCC(C)CC2)OC1=O (centres undefined)	.	.	100	-5	i	0.88	-1.1
Cc1nc(SCC(=O)c2ccc(F)cc2)c([N+](=O)[O-])[nH]1	39	94	106	-15	i	0.98	-1.1
O=C(CCC(=O)OCc1ccc(Cl)cc1)Nc1cccc([N+](=O)[O-])c1	10	127	44	-8	i	0.98	-2.4
Cc1nn(C)c(C)c1C1C(C#N)=C(N)OC2=C1C(=O)CC(C)(C)C2 (centres undefined)	-14	54	109	6	i	0.98	0.1
O=c1ccc2c(o1)/C(=C/C=C(Cl)Cl)CCC2	-18	161	104	7	i	0.98	-0.6
COc1cc(/C=C/C(=O)c2ccccc2O)cc(OC)c1OC	20	69	109	3	i	0.8	.
COC1(c2cc(-c3ccccc3)nc(N)n2)CCCCC1	14	111	99	-3	i	0.97	0.7
COc1ccc(OCC(=O)N2CCN(c3nnc(-c4ccc(C)cc4)c4ccccc34)CC2)cc1	.	.	100	.	i	0.97	.
O=C(/C=C/c1c(F)cccc1Cl)Nc1ncccn1	-44	105	111	-3	i	1.1	-0.6
NNC(=O)c1ccccc1-n1cccc1	.	.	101	-1	i	0.98	.
NC(=O)c1ccc(N=Nc2c(O)c3ccccc3[nH]c2=O)cc1	.	.	106	.	i	1	.
O=C(O)CCC(=O)Nc1ccc(Oc2ncnc3cc(Cl)ccc23)nc1	.	.	101	.	i	0.91	.
Cc1cc(C)nc(-n2ncc(C#N)c2N)n1	.	.	95	5	i	1	.
O=C(c1ccc(NC(=O)C2(c3ccccc3)CCCC2)cc1)N1CCOCC1	.	.	97	.	i	1.1	.
CCCCC(CC)C(=O)Nc1ccccc1C(=O)NC(C)C (centres undefined)	-30	68	100	5	i	0.84	-1.6

Assay outcomes from PubChem BioAssay.
